Screening data (PubChem)
PINK1 expr mod: PINK1 expression modulation | PINK1 immunofluorescence, high-content cytometry, 24 h | 0.2% of 410,000 active | Potency, µM (doses to about 76.6 µM), inactives show top-dose activation (PINK1 increase), most hits filed as activators; active = well fitted activation curve with a large enough effect; inconclusive = small, poorly fitted or top-dose-only effect; inactive = flat fitted curve, though single readings scatter; cell line not stated here;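 further: potency means the concentration at half of the fitted maximal effect; % of control where 0% means no effect; nearly all actives have a fitted effect of over 65% in size; a mitochondrial uncoupler was the plate control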
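Stable cell line treated 24 h with compounds at 5 concentrations (CCCP controls), then fixed and immunostained for PINK1 plus nuclear and cell stains; PINK1 immunofluorescence quantified by laser-scanning microplate cytometry.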
Six1-Eya2 blk: Six1/Eya2 interaction inhibition. Q15475+O00167. AlphaScreen GST-Six1/His-Eya2 binding, biochemical; stronger effect = lower value; control for the full effect not named in the record. activity change, % (concentration not given with the values). 0.56% of 360,000 active; in the data active = activity change below about -65%; inconclusive = about -30% to -65%; inactive = above about -30%; further: on the % scale 0 is the no-effect control and ±100 the full control effect
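AlphaScreen luminescence read after one hour at 37 °C in darkness. Pin-transferred compounds met GST-Six1 and His-Eya2 protein (5X stock 250 nM/500 nM) plus glutathione donor and Ni-chelate acceptor beads (5X, 50 ug/mL).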
D2 agonist: activates the human D2 dopamine receptor | DiscoveRx PathHunter D2 beta-arrestin, luminescence, 90 min; 100% = 57 uM dopamine signal | activation, % (no concentration beside the values) | 0.084% of 360,000 active | AID 624465; in the data active = activation above about 40%; inconclusive = about 15% to 40%; inactive = below about 15%; further: compound concentration not given in the record; the text of the record calls up to 30% inactive
Target sequence (P14416 whole entry, looked up): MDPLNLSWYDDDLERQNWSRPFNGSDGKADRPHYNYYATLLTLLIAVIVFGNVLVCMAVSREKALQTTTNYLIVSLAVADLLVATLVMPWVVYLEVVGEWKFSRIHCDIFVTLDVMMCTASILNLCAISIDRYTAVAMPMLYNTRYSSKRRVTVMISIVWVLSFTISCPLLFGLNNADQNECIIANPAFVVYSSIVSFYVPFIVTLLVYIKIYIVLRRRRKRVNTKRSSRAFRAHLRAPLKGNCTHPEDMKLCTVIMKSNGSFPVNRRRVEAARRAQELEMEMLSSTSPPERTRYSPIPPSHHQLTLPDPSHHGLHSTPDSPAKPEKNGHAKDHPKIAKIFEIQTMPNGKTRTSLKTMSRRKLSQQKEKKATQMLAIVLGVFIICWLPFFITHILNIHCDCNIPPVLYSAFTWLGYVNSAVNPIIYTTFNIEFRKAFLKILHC
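Agonist mode: compounds alone added to overnight-plated D2 PathHunter cells for 90 min at 37 C, with 57 uM final dopamine (EC100) defining full response. Beta-arrestin recruitment detected by chemiluminescent reagent, read after 1 h at ambient temperature.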
TRPML1 blocker: inhibitors of human TRPML1 channel; TRPML1-inducible cells, Ca2+ dye fluorescence, FDSS; stronger effect = lower value; inhibition of EC80 agonist-evoked calcium signal; activity change, negative = inhibition, % (test concentration not listed); 0.02% of 390,000 active; AID 624415; Q9GZU1; in the data active means activity change below about -50%; inconclusive means about -30% to -50%; inactive means above about -30%;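 further: stimulus is agonist 54-4 at its EC80 concentration; on the % scale 0 is the no-effect control and ±100 the full control effect; compound concentration not given in the record; the text of the record puts the active cut at -80%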
Target sequence (Q9GZU1 whole entry, looked up): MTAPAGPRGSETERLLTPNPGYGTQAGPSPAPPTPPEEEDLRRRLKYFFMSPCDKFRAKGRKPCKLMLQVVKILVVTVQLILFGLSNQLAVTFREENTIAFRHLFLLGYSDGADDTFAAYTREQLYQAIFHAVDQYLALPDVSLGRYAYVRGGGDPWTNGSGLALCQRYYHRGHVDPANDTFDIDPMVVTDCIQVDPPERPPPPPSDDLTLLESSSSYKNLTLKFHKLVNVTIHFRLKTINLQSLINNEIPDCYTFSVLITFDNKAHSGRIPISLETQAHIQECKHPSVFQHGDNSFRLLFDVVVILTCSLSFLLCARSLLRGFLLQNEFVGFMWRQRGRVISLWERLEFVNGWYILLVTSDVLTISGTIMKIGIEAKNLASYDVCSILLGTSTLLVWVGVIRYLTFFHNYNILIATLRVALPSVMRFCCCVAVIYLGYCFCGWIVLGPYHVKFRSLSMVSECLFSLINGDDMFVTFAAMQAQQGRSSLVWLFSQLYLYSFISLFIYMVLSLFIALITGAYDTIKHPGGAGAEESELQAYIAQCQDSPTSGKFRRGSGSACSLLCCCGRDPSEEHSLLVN
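Tet-induced TRPML1-DL cells loaded with Ca8 no-wash calcium dye were read kinetically on FDSS. Compound addition was followed by EC80 agonist 54-4 (4 uM final); inhibition was read over 110 s.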
CtBP-E1A blk: blocks the CtBP interaction with E1A; AlphaScreen GST-E1A/His-CtBP binding, 1536-well; stronger effect = lower value; control for the full effect not named in the record; activity change, % (test concentration not listed); 0.49% of 340,000 active; in the data active means activity change below about -65%; inconclusive means about -30% to -65%; inactive means above about -30%; further: on the % scale 0 is the no-effect control and ±100 the full control effect; compound concentration not given in the record
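Steps: dispense buffer (Tris pH 8.0, NaCl 300 mM, TCEP 1 mM, BSA, Tween 20); add 5X protein mix (GST-E1A, His-CtBP, 125 nM each); pin 23 nL compound; 2 h at 37 °C, dark; add 5X beads (50 ug/mL); 1 h; read.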
TRPML1 agonist: human mucolipin-1 channel agonism | AID 624414 | TRPML1-expressing cells, Ca2+ dye fluorescence, FDSS; host cell line not named in the record; reference of the full effect not given here | activation, % (no concentration beside the values) | 0.12% of 410,000 active; in the data active = activation above about 50%; inconclusive = about 30% to 50%; inactive = below about 30%; further: 0% is about no effect; the text of the record puts the active cut at 80%
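Cells: TRPML1-DL, 1X Tet inducer, ~16 h at 37 degrees C/5% CO2. Dye: ABD Ca8 no-wash + quencher, 45-90 min RT. Read: 10 s baseline, compound add, 110 s agonist phase; 54-4 EC80 (4uM final), 110 s antagonist phase.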
An asterisk follows results filed as active; ? = inconclusive; · = no result given; [ ] = another dose, or the depositor's remark.

SMILES | PINK1 expr mod | Six1-Eya2 blk | D2 agonist | TRPML1 blocker | CtBP-E1A blk | TRPML1 agonist
COc1cccc(NC(=O)CCC2CCN(C(=O)C3CC=CCC3)CC2)c1 (centres undefined) | 1.5% | 5 | -0.2 | 0 | -6 | 0.3
CCOc1ccc(NC(=O)c2cc(S(=O)(=O)N3CCOCC3)cn2C)cc1 | 2.9% | 3 | -2.6 | 2 | -4 | -0.4
O=C(CCC(=O)c1ccccc1)Nc1ccc(C(=O)O)cc1 | 0.3% | 11 | -0.1 | -17 | · | 0.1
O=C(CN1CCN(S(=O)(=O)c2ccc(F)cc2)CC1)NC1CC1 | 0.4% | 2 | -0.9 | 31 | -1 | 0.2
COc1ccc(NC(=O)CN(C)C(=O)c2ccccc2CCc2ccccc2)cc1 | -2.9% | -4 | 1.9 | -21 | -18 | 4.0
Cc1ccc(NC(=O)c2cccc(OCc3c(C)noc3C)c2)cc1S(=O)(=O)Nc1ccccc1Cl | 7.6% | -25 | 4.1 | 9 | ? | 2.9
CCc1nc2ccc(C(=O)N3CCN(CC)CC3)cc2nc1CC | 0.4% | 1 | -7.1 | -11 | -12 | -0.1
O=C(Nc1ccc(N2CCCCC2)cc1)c1ccc(F)cc1 | 1.3% | -1 | -2.0 | 5 | 9 | -0.8
Cc1nnc(N2CCC(C(=O)NCCC(C)C)CC2)c2nn(-c3ccc(Cl)cc3)c(C)c12 | 2.0% | · | · | 8 | · | 2.1
CCOC(=O)C1=C(Nc2ccccc2)CSC1 | 3.5% | -1 | -2.7 | -1 | 0 | -1.2
NC(=O)CC(NC(=O)c1ccccc1)c1ccc(NC2CCCCC2)c([N+](=O)[O-])c1 (centres undefined) | 3.6% | -18 | -2.7 | -7 | -18 | -0.6
COc1ccccc1N/C=C(\C#N)c1nc2ccccc2[nH]1 | ? | -2 | 11 | 4 | · | 0.8
CCOC(=O)c1c(C)[nH]c(C)c1S(=O)(=O)NCC(=O)Nc1cccc(C#N)c1 | -0.2% | · | · | 5 | · | 0.1
COc1cc2ccccc2cc1C(=O)N1CCCC1 | -0.9% | 3 | 4.7 | 17 | 5 | 0.3
Cc1cc(/C=c2/sc3nc4ccccc4n3c2=O)c(C)n1-c1ccccn1 | ? | -2 | 2.6 | 8 | -3 | 6.7
CC1(C(=O)NS(=O)(=O)c2cccc(OC(F)F)c2)CCN1C(=O)c1ccccc1CCc1ccccc1 (centres undefined) | 1.7% | -5 | -2.4 | · | 0 | -0.9
Clc1ccc2oc(-c3ccccc3)nc2c1 | -2.6% | 20 | -2.4 | 7 | 13 | 0.7
COC(=O)[C@]12CCCCC=C1N(Cc1ccc(Cl)cc1Cl)C(=O)[C@H](CC(=O)N1CCN(C(=O)c3ccco3)CC1)C2 | -0.6% | -3 | · | · | -29 | -0.6
O=c1cc(O)n(-c2ccc(F)cc2)c(=S)[nH]1 | 4.2% | 9 | -2.0 | -3 | 4 | -0.3
COc1cc(Nc2nn(-c3ccc(OC(F)(F)F)cc3)nc2C(C)=O)cc(OC)c1 | 3.2% | · | · | -13 | · | 0.2

Entries of single compounds from above:
Cc1ccc(NC(=O)c2cccc(OCc3c(C)noc3C)c2)cc1S(=O)(=O)Nc1ccccc1Cl in the list: PINK1 expr mod = 7.6%; Six1-Eya2 blk = -25; D2 agonist = 4.1; TRPML1 blocker = 9; CtBP-E1A blk = ?; TRPML1 agonist = 2.9
CCOc1ccc(NC(=O)c2cc(S(=O)(=O)N3CCOCC3)cn2C)cc1 in the list: PINK1 expr mod = 2.9%; Six1-Eya2 blk = 3; D2 agonist = -2.6; TRPML1 blocker = 2; CtBP-E1A blk = -4; TRPML1 agonist = -0.4

(listing goes on)
SMILES | PINK1 expr mod | Six1-Eya2 blk | D2 agonist | TRPML1 blocker | CtBP-E1A blk | TRPML1 agonist
CC1(C)CC(=O)c2cnc3nc4ccccc4n3c2C1 | 0.8% | 7 | 0.1 | 27 | · | 0.9
COc1c(Cl)cc(Cl)cc1/C=C(\C#N)c1nc2ccccc2[nH]1 | 5.7% | · | · | 13 | · | 2.1
CC1CCCC(NC(=O)CC2Nc3ccccc3NC2=O)C1C (centres undefined) | 5.2% | 6 | -2.4 | 9 | -9 | 0.7
O=C(NCC1COc2ccccc2O1)c1cccc(S(=O)(=O)NCc2ccccc2)c1 (centres undefined) | -1.0% | 3 | 0.4 | 10 | -5 | 0.4
COc1cccc(-c2ccc3c(c2)C2CC3CCN2C(C)=O)c1 (centres undefined) | -0.6% | -1 | -0.5 | 22 | 0 | -0.9
O=C(Nc1ccc(F)cc1)N1CCN(c2nc3ccccc3s2)CC1 | 1.5% | -2 | 4.3 | 21 | 0 | -0.4
COc1nc(-c2cccs2)cc(-c2ccc(C)cc2)c1C#N | ? | 17 | -4.2 | 1 | 18 | 0.3
Cc1ccc(NC(=O)CN(C)C(=O)c2cccc(S(=O)(=O)NCc3cccs3)c2)cc1 | 0.5% | 2 | 4.2 | -4 | 3 | -0.7
COC(=O)c1cc(S(=O)(=O)NCCc2ccc(Cl)cc2)c[nH]1 | -0.4% | 1 | -4.0 | -1 | 2 | -1.1
NC(=O)c1ccc(NC(=O)Cc2ccc(S(=O)(=O)N3CCCCC3)cc2)cc1 | 0.4% | -3 | 1.1 | -25 | -3 | 1.1
CC(=O)N/C(=C\c1ccccc1)C(=O)NCc1ccc2c(c1)OCO2 | -1.1% | -1 | -0.5 | -7 | · | 1.3
CC(C)c1ccc(N(CC(=O)NCc2cccnc2)S(=O)(=O)c2ccccc2)cc1 | 1.7% | 1 | 2.9 | -22 | 3 | 1.9
CC1CCCCC12NC(=O)N(CC(=O)NCc1ccc3c(c1)OCO3)C2=O (centres undefined) | 1.4% | 2 | -4.6 | 25 | 2 | -0.5
Cc1cc(C)c(NC(=O)CNC(=O)Cc2sc(C)nc2-c2ccc(F)cc2)c(C)c1 | 1.9% | -1 | -0.8 | -6 | 2 | ?
CN(C)c1ccc(-c2ccnc3c2CC(C)(C(=O)Nc2ccc(F)c(Cl)c2)O3)cc1 (centres undefined) | 1.6% | -12 | -3.5 | · | -3 | -0.4
O=C(Cn1cc([N+](=O)[O-])cn1)N1CCc2ccccc21 | 2.3%[38.3 µM] | 4 | -2.3 | -14 | 5 | -0.3
CCCCc1nn2c(=O)cc(COC(=O)c3cccc(Cl)c3)nc2s1 | -0.4% | · | · | -9 | · | -0.8
CC(NC(=O)CN1C(=O)NC2(CCc3ccccc32)C1=O)c1ccc2c(c1)OCCO2 (centres undefined) | 0.0% | 4 | 6.5 | 16 | -1 | 2.2
CCOC(=O)Cc1ccc(Nc2nc3cc(-c4sccc4C)sc3c(=O)n2C)cc1 | 4.4% | 2 | -2.0 | · | 1 | -1.1
O=C(NC1CCS(=O)(=O)C1)N1CCCCC1 (centres undefined) | 1.4% | -1 | -3.3 | 4 | 3 | -0.3
CCc1ccc(NC(=O)CN(c2ccc(C)cc2)S(=O)(=O)c2c(C)nn(C)c2C)cc1 | 5.1% | · | · | -3 | · | 0.5
O=C(NCc1ccc(Cl)cc1)C(=O)NCC1OCCCN1S(=O)(=O)c1cccs1 (centres undefined) | ? | -5 | -0.4 | 32 | -10 | 1.3
CN(Cc1ccon1)Cc1cn(Cc2ccccc2)nc1-c1ccc2c(c1)OCO2 | -1.2% | 2 | 13 | -9 | · | 1.3
O=C(OCC(=O)N1CCN(S(=O)(=O)c2ccc(Cl)cc2)CC1)c1ccc([N+](=O)[O-])o1 | 0.5% | 0 | 4.8 | 4 | 1 | -1.2
COC(=O)c1ccc(Cl)c(NS(=O)(=O)c2ccc3c(c2)OCCO3)c1 | 13% | 2 | 0.2 | -2 | -2 | 1.0
Cc1ccc(NC(=S)N(CCN(C)C)Cc2cccs2)c(C)c1 | 0.9% | -1 | -4.8 | -8 | 0 | -0.8
Cc1ccc(Cl)cc1N1CCN(C(=O)c2cn(C)c3ccc(S(=O)(=O)N4CCCC4)cc3c2=O)CC1 | 2.7% | · | · | -9 | · | -0.4
Cc1ccc(S(=O)(=O)N2CCCC(C(=O)NCc3ccccn3)C2)cc1 (centres undefined) | 1.1% | 9 | -4.1 | -5 | -2 | 0.0
O=C(NCc1ccccc1)c1ccc(CS(=O)Cc2cccc(Cl)c2)o1 (centres undefined) | 0.8% | 2 | 0.9 | -10 | 1 | -0.5
COc1cc(/C=N/NC(=O)CC#N)ccc1Oc1nc(Cl)ncc1F | 1.9% | -12 | -2.9 | 2 | 1 | -0.2
Cc1cccc(NC(=O)N2CCC(NC(=O)c3ccccc3C)CC2)c1 | -2.2% | 9 | -1.3 | -14 | 12 | -0.2
CCN1C(=O)C2(C(C#N)=C(N)Oc3n[nH]c(C(C)C)c32)c2ccccc21 (centres undefined) | 5.3% | -2 | -4.2 | -26 | 2 | -0.1
Cc1ccc(CNC(=O)CNC(=O)c2ccc(C(C)(C)C)cc2)n1C | 2.2% | -10 | -1.7 | -19 | 0 | 0.1
O=C(N/N=C/c1cccc(F)c1)NC1CCCCC1 | 2.9% | 3 | -1.5 | -9 | 5 | 0.8
Cc1cc(C(C)(C)C)ccc1OCCCCN1CCCC1 | 0.8% | 0 | -2.0 | 1 | -1 | -0.4
CN(C)C(CNC(=O)CN1C(=O)NC2(CCCC2)C1=O)c1ccccc1 (centres undefined) | 0.3% | 7 | -2.0 | -10 | -15 | 1.3
O=C(CC(C(=O)N1CCc2ccccc21)n1ccnc1)NCc1cccnc1 (centres undefined) | -1.9%[38.3 µM] | -2 | -2.1 | -5 | 3 | 0.5
CCOC(=O)Cn1nc(-c2ccc(C)cc2)ccc1=O | ? | 0 | -1.3 | 21 | 9 | -0.3
CCOC(=O)Nc1c(C(=O)OC)[nH]c2cc(OC)ccc12 | 8.7% | -4 | -6.9 | 2 | -2 | -1.7
O=C(NCC(c1cccs1)N1CCOCC1)C1CCN(S(=O)(=O)c2c(Cl)cccc2Cl)CC1 (centres undefined) | -0.5% | 2 | -2.2 | 11 | 5 | 0.3
O=C(N/N=C/c1ccncc1)c1cc2ccccc2o1 | 15% | 2 | 2.0 | -17 | -4 | -0.3
CCOC(=O)NC(Nc1sc2c(c1C(N)=O)CCCC2)(C(=O)OCC)C(F)(F)F (centres undefined) | 0.8%[38.3 µM] | -3 | 1.6 | 54 | -5 | 0.2
Cc1nnc(-c2cnn(-c3ccccc3)c2N)n1Cc1cccc(C(F)(F)F)c1 | ? | 2 | -1.8 | 0 | 7 | -0.2
COC(=O)c1ccc2nc(C3CCCCC3)c(Cc3cccc(F)c3)n2c1 | 0.9% | 10 | -7.3 | · | -9 | 0.6
